# Rango complex inh: inhibitors of Rango-importin beta complex formation; Potency, µM (doses to about 92.2 µM), inactives show at the top dose inhibition of complex formation; AID 540263; Rango CFP/YFP FRET sensor + importin beta, 45 min; 340,000 compounds, 0.031% hits; Q14974; active = rising FRET ratio curve, often small or poorly fitted; inconclusive = mostly compound fluorescence or quenching in the first reads; inactive = flat curves in all reads;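 also: potency is read from the fitted curve at half-maximal effect; 0% = DMSO wells and 100% = buffer wells lacking importin beta; nearly all actives have a fitted effect of over 15% in size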
# Target sequence (Q14974 whole entry, looked up): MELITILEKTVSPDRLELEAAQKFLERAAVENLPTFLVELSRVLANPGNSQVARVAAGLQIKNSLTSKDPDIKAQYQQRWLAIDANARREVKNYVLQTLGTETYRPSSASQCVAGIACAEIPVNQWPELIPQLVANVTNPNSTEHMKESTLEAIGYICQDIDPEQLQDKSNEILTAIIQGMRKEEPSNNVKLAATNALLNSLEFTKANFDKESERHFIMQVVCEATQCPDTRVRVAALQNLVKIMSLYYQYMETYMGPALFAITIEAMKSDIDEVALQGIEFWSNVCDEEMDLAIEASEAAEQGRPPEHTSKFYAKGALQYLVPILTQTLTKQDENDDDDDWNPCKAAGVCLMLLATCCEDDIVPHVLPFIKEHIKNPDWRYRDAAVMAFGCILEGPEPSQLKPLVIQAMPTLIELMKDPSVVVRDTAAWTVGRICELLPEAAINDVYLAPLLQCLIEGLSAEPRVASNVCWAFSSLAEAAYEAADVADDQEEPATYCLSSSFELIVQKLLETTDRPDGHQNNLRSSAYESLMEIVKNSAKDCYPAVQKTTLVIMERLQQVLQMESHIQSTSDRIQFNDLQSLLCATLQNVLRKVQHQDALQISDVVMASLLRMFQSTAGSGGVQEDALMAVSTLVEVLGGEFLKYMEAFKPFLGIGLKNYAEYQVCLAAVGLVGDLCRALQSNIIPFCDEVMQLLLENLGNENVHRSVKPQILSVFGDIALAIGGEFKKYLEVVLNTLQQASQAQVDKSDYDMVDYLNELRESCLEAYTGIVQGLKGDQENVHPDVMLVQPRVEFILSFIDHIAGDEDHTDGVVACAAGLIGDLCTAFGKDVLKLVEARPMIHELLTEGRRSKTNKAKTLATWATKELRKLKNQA
#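 Inhibition scored from the CFP 486 nm/YFP 530 nm FRET ratio 45 min after adding 0.125 microM importin beta to 50 nM Rango biosensor preincubated 5 min with compound (room temperature, PBS with DTT, Tween-20, BSA). No-importin wells as positive control.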
# GLA inh pH 4.5: blocks human alpha-galactosidase A at pH 4.5 | P06280 | purified enzyme, 4-MU-alpha-Gal fluorescence, pH 4.5 | activity change, negative = inhibition, % at 105 µM | 230,000 tested, under 10 active | AID 1467; inconclusive = small, poorly fitted or top-dose-only inhibition, or a rising curve; inactive = flat fitted curve, though single readings scatter; no compound was filed as active;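 also: 0% = full activity with enzyme and -100% = basal without enzyme; dose as in the result columns while the protocol names 77 µM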
# miR-21 reporter: miR-21 reporter, rising signal. HeLa miR-21 FLuc reporter, luciferase, 48 h. Potency, µM (top dose mostly 38.3 µM), inactives show top-dose reporter change, positive = more light. 340,000 tested, under 10 active. AID 2288; active = well fitted rising curve with a large enough effect; inconclusive = small, poorly fitted or top-dose-only effect; inactive = no such curve, though single readings can be large or run the other way;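 also: % of control where 0% means no effect; miR-21 action dims this reporter so a rising signal means less miR-21 action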
#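 Luminescence from a firefly luciferase reporter carrying a miR-21 binding site downstream, stably expressed under a CMV promoter in HeLa cells that make miR-21 endogenously, reports miRNA modulation after 48 h compound exposure up to approximately 40uM final.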
# Rango dissoc inh: prevents RanGTP from dissociating the Rango-importin beta complex | O95149+P62826 | Biochemical FRET Rango-importin beta, RanGTP-induced dissociation | Potency, µM (top dose mostly 46.1 µM), inactives show at the highest dose activity change, negative = inhibition | 340,000 compounds, 0.071% hits | AID 540253; active means falling FRET ratio curve, often poorly fitted, with flat reads before Ran was added; inconclusive means other falling curves, or compound fluorescence or quenching; inactive means flat or rising ratio curve;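 also: potency is read from the fitted curve at half-maximal effect; % of control where 0% means no effect; nearly all actives have a fitted effect of over 45% in size; -100% = wells without RanGTP and RCC1; the record marks most hits as doubtful in a second field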
#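 Quantitative HTS using a FRET biosensor: 0.1 uM Rango, 0.25 uM importin beta, 0.6 uM Ran, 2 mM GTP, 0.2 uM RCC1 final, PBS with DTT, Tween-20 and BSA. Post-read taken 45 min after Ran addition.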
# Starred values were filed as active, the others as inactive; ? = inconclusive; nt = no result given.
cpd	Compound	Rango dissoc inh	GLA inh pH 4.5	miR-21 reporter	Rango complex inh
1	Cc1ccc(NC(=O)C2(S(=O)(=O)c3ccc(C)cc3)CC2)cc1	1%	0	0%	-5.7%
2	COCCN(C(=O)CSc1ncccn1)c1c(N)n(Cc2ccccc2)c(=O)[nH]c1=O	0%	nt	nt	5.6%
3	C/C(=N\Nc1ccc(Cl)c(C(=O)O)c1)c1ccc(Br)s1	12%	nt	-51%	8.1%
4	CC(=O)Nc1ccc(NC(=O)CSc2ncc(C(=O)Nc3ccc(F)cc3)c(=O)n2C)cc1	4%	nt	nt	-0.2%
5	C[C@@H](NC(=O)[C@@H]1Cc2ccccc2CN1C(=O)OC(C)(C)C)C(=O)NC1CCCCC1	-12%	nt	-2%	-1.3%
6	O=C1NC(=O)C(Cc2ccc(Cl)cc2)(c2ccccc2)N1 (stereo unspecified)	-11%	nt	nt	3.0%
7	N=c1ncn(CC(O)CO)c2nc(N3CCOCC3)[nH]c12 (stereo unspecified)	11%	1	-2%	-1.5%
8	O=C(c1n[nH]c(=O)c2ccccc12)N1CCN(c2ccc(F)cc2)CC1	8%	1	-2%	7.3%
9	CCOC(=O)C1CCN(C(=O)COC(=O)CCOc2ccc(C)cc2)CC1	-12%	1	4%	-1.3%
10	CC(C)Cn1c(N)c(C(=O)COC(=O)CCNS(=O)(=O)c2ccccc2)c(=O)n(C)c1=O	-13%	nt	nt	-0.6%
11	CC(NC(=O)c1ccccc1NS(=O)(=O)c1ccc(CCC(=O)O)cc1)c1ccccc1 (stereo unspecified)	4%	nt	-1%	0.0%
12	O=C1CN(C(=O)COC(=O)CCC(=O)c2ccc(Cl)cc2)c2ccccc2N1	-7%	nt	nt	5.4%
13	O=C(CSc1nnc(-c2ccccc2)n1-c1ccccc1)NCc1ccco1	-10%	-1	-1%	-0.4%
14	Cc1c(NC(=O)/C(C#N)=C/c2ccc(-c3cccc(Cl)c3)o2)c(=O)n(-c2ccccc2)n1C	-19%	-9	22%	-0.5%
15	CCOC(=O)C1=C(N)Oc2cc(O)ccc2C1c1ccc(Br)cc1 (stereo unspecified)	?	nt	-1%	?
16	COc1ccccc1OCC(=O)NCCSCc1ccccc1Cl	-7%	-14	-28%	-2.5%
17	O=C(Cn1c(=O)oc2ccccc21)Nc1n[nH]c(=S)s1	0%	5	-4%	0.4%
18	COc1ccc(C2=Nn3c(nnc3C3CCCCC3)SC2)cc1OC	-14%	-1	13%	-0.2%
19	OCCn1c(-c2ccc3c(c2)OCO3)csc1=Nc1ccccc1	15%	-5	1%	-1.3%
20	Brc1ccc2nc(CSc3ncn[nH]3)cn2c1	-1%	5	-27%	0.1%

# Full records from above. Screens in order: Rango dissoc inh	GLA inh pH 4.5	miR-21 reporter	Rango complex inh
# `N=c1ncn(CC(O)CO)c2nc(N3CCOCC3)[nH]c12` (stereo unspecified) is listed with 11%	1	-2%	-1.5%
# `O=C(CSc1nnc(-c2ccccc2)n1-c1ccccc1)NCc1ccco1` is listed with -10%	-1	-1%	-0.4%

# Next entries follow.
cpd	Compound	Rango dissoc inh	GLA inh pH 4.5	miR-21 reporter	Rango complex inh
21	COc1ccc(NC(=O)c2ccc3c(c2)NC(=O)CS3)cc1S(=O)(=O)Nc1ccc(Br)cc1	16%	-8	?	-0.3%
22	O=C(Cc1ccccc1F)Nc1ccccc1N1CCCC1	-6%	nt	-4%	9.5%
23	COc1ccc(NC(=S)N(CCN2CCOCC2)C2CCN(C(C)=O)CC2)cc1Cl	8%	7	-20%	-3.5%
24	Cc1cccc(C(=O)NCCC(=O)Nc2ccc(F)c([N+](=O)[O-])c2)c1	-12%	nt	5%	0.2%
25	COc1ccc(C(CNC(=O)C(C)(C)Oc2ccc(Cl)cc2)N2CCCCC2)cc1 (stereo unspecified)	-5%	nt	-1%	2.1%
26	O=C(COC(=O)/C=C/c1ccco1)NC1CCCCC1	2%	nt	nt	-0.8%
27	COC(=O)Nc1ccc(S(=O)(=O)N2CCCC(C(=O)N3CC(C)OC(C)C3)C2)cc1 (stereo unspecified)	-13%	6	-2%	2.1%
28	Nc1cc(C(=O)O)ccc1N1CCCCCC1	3%	0	0%	0.5%
29	O=C(c1cccc(F)c1)N1CCN(Cc2ccc3c(c2)OCO3)CC1	-5%	nt	-1%	-3.5%
30	O=C(Nc1ccc(-c2csc(Nc3cccc(C(F)(F)F)c3)n2)cc1)c1ccccc1	13%	-3	?	?
31	COC(=O)CNC(c1ccccc1)c1cc(Br)ccc1NC(=O)OCc1ccccc1 (stereo unspecified)	-7%	-8	-6%	0.0%
32	FC(F)(F)C(F)(F)C(F)(F)c1nnc2ccc(N3CCOCC3)nn12	18%	-13	-14%	-0.5%
33	COc1ccc(C(=O)NNC2=Nc3cccc4cccc2c34)cc1	?	-3	4%	?
34	O=C(Cn1ccc([N+](=O)[O-])n1)Nc1ccccn1	-1%	-4	0%	7.0%
35	O=C(c1cccc(S(=O)(=O)N2CCc3ccccc32)c1)N1CCN(c2ccccn2)CC1	-18%	-2	29%	-0.2%
36	CCOC(=O)C1=C(CN2CCN(C(=O)c3ccco3)CC2)NC(=O)NC1c1ccc(OC)cc1 (stereo unspecified)	-23%	nt	2%	1.6%
37	Cc1ccc(NC(=S)Nc2ccc(Br)cc2)cc1	0%	1	-14%	0.1%
38	CC1=CC(C)(C)N2C(=O)C3(C(C#N)=C(N)OC4=C3C(=O)CC(C)(C)C4)c3cc(C)cc1c32 (stereo unspecified)	12%	-11	9%	-0.1%
39	CSc1cccc(NC(=S)N(CCC(C)C)C2CCN(C(C)=O)CC2)c1	3%	1	-6%	1.2%
40	S=c1[nH]nc(-c2cc(-c3ccsc3)n[nH]2)n1-c1cccc2ccccc12	-1%	5	-18%	-1.2%
41	CC1(c2cccc3ccccc23)NC(=O)N(CC(=O)NC2CCS(=O)(=O)C2)C1=O (stereo unspecified)	11%	2	-5%	-1.7%
42	CSCC[C@H](NC(=O)[C@H]1CC[C@H](CNC(=O)[C@@H]2CCCN2)CC1)C(=O)O	10%	nt	0%	2.2%
43	CCn1cc(C(=O)NC2CCCCCC2)c(=O)c2ccc(C)nc21	2%	nt	-1%	-3.6%
44	CC(Sc1nc2ccccc2c(=O)n1C)C(=O)NC1CCCCC1C (stereo unspecified)	-5%	nt	nt	0.0%
45	COc1ccccc1/C=C/c1nc(S(=O)(=O)c2ccccc2)c(N2CCC(C(N)=O)CC2)o1	?	nt	-1%	?
46	CC(C)COC(=O)N1CCCC1C(=O)Nc1nccs1 (stereo unspecified)	25%	-3	-3%	-0.1%
47	COc1ccc(C(=O)COC(=O)CN2C(=O)C3C4CCC(C4)C3C2=O)cc1 (stereo unspecified)	4%	nt	0%	-2.0%
48	O=C(NCc1ccccc1)c1ccc(C(=O)N(C2CCCCC2)C2CCCCC2)cc1	-16%	-11	0%	-0.1%
49	N#Cc1c(C(F)(F)F)cc(-c2ccc(Cl)c(Cl)c2)nc1SCCN1CCOCC1	14%	2	0%	0.0%
50	O=C(CC1C(=O)NCCN1CC1CCCCC1)NCc1cc(F)ccc1F (stereo unspecified)	-23%	5	0%	-1.0%
51	CCc1cccc2c(C(=O)CN3C(=O)NC4(CCCCCC4)C3=O)c[nH]c12	1%	nt	nt	0.6%
52	COC(=O)c1ccccc1Sc1snnc1C	-1%	-2	-12%	-1.5%
53	COc1cccc(/C=C2\Oc3cc(OCC(=O)N4CCCC4)ccc3C2=O)c1OC	19%	nt	-3%	-0.9%
54	C=CCc1cccc(/C=N/NC(=O)C[n+]2ccccc2)c1O	6%	nt	19%	5.4%
55	CCC(C)c1ccc(OCC(=O)Nc2ccc(Cl)cn2)cc1 (stereo unspecified)	-2%	7	-35%	0.2%
56	CCCN1C(=O)/C(=C/c2c(NCCCOC(C)C)nc3c(C)cccn3c2=O)SC1=S	-9%	1	-9%	6.0%
57	CCOc1ccc(C(=O)Nc2ccc(CN3CCOCC3)cc2)cc1Cl	-10%	nt	4%	-0.8%
58	CCN(CC)S(=O)(=O)c1ccc(/C=C/C(=O)N(c2ccccn2)C2CCCCC2)cc1	-6%	?	-1%	-0.4%
59	Cc1cc(O)c(C(C)C)cc1N=Cc1cc([N+](=O)[O-])ccc1O	-13%	-14	-1%	0.2%
60	Cc1ccc(-c2nn(-c3ccccc3)cc2C(=O)Nc2ccc(C(=O)O)cc2)cc1	?	2	-41%	-1.9%
61	CCOc1ccccc1NC(=O)C1=C(C)NC(=O)NC1c1cccc(OC)c1OC (stereo unspecified)	-15%	-2	1%	2.0%
62	Cc1ccc2cc(C)c(SCC#N)nc2c1	-5%	3	-22%	1.6%
63	CC1CCC2(CC1)NC(=O)N(CC(=O)c1ccc[nH]1)C2=O (stereo unspecified)	-11%	4	1%	0.8%
64	CCOC(=O)c1cc2c(ccn2C)n1Cc1cc(C)ccc1C	-18%	-3	-8%	-3.5%
65	COCCn1c(CN2CCN(C)CC2)nc2c1c(=O)n(C)c(=O)n2C	8%	0	-2%	6.0%
66	S=C(NCCCc1ccccc1)Nc1ccc(Cl)cc1	4%	-18	4%	6.3%
67	CN(C)S(=O)(=O)c1cccc(C(=O)Nc2ccccc2)c1	18%	4	-24%	3.7%
68	CC1(C)CC2CC(C)(CN2C(=O)COC(=O)c2ccc(NC(=O)CC#N)cc2)C1 (stereo unspecified)	?	nt	nt	?
69	Cc1cc(C)c(NC(=O)C2CSCCS2)c(C)c1 (stereo unspecified)	0%	-2	-40%	-2.3%
70	O=c1c2ccccc2c(C=NC2CCN(Cc3ccccc3)CC2)c(O)n1Cc1ccc2c(c1)OCO2	nt	-16	0%	nt
71	O=C(CCN1CCc2ccccc21)c1ccc2c(c1)OCCO2	-4%	2	8%	?
72	O=C1c2ccccc2C(=O)N1CCCc1c[nH]c2ccc(Cl)cc12	4%	-3	0%	1.1%
73	CC(=O)N1CCN(S(=O)(=O)c2cccc(C(=O)OCN3C(=O)c4ccccc4C3=O)c2)CC1	1%	nt	0%	-1.2%
74	CC1CCCCC1NC(=O)c1cc(=O)[nH]c2ccccc12 (stereo unspecified)	-9%	nt	nt	0.4%
75	Cc1ccc(C(=O)NC2CCS(=O)(=O)C2)cc1S(=O)(=O)N1CCCC1 (stereo unspecified)	-3%	nt	-4%	-3.7%
76	Cc1ccc(O)c(NC(=O)c2cc3nc4c(c(C(F)(F)F)n3n2)CCc2ccccc2-4)c1	-10%	5	-7%	-0.1%
77	COc1ccc(CNC(=O)c2cccs2)cc1	-6%	-12	-6%	3.3%
78	CCOC(=O)C1CCCc2c1[nH]c1ccc(Cl)cc21 (stereo unspecified)	0%	-9	15%	?
79	COc1ccccc1NC(=O)c1cc2c(cc1Cl)N1CCCCCC1=NS2(=O)=O	-3%	nt	nt	0.6%
80	NC(=O)CCSC(=S)N1CCOCC1	3%	5	3%	-3.7%

# Carrying on.
cpd	Compound	Rango dissoc inh	GLA inh pH 4.5	miR-21 reporter	Rango complex inh
81	Cc1ccccc1CN(C)CC(=O)Nc1ccccc1Oc1ccccc1	2%	1	-4%	2.0%
82	COc1ccc(CNC(=O)C(NC(C)=O)C(=O)Nc2ccc(OC)cc2)cc1 (stereo unspecified)	-7%	4	1%	1.0%
83	Cc1nc2cc(-c3ccc(Br)cc3)[nH]n2c(=O)c1Cl	-12%	nt	-15%	-0.2%
84	COc1ccc(OC)c(-n2cnc3cc(C(=O)NCCCN4CCOCC4)ccc32)c1	24%	6	-43%	-0.6%
85	COC(=O)c1cc(Nc2cc(C)nc3ncnn23)cc(C(=O)OC)c1	-4%	6	-6%	?
86	COc1ccc(CNC(=O)CN(Cc2ccc(OC)cc2)C(=O)CCC(=O)Nc2ccccn2)cc1	19%	nt	-2%	0.2%
87	CN(CC(=O)NC(=O)NC1CCCCC1)CC(=O)Nc1ccc(Cl)cc1	-19%	nt	nt	-1.5%
88	CCCCOc1ccc(-c2nnn(CC(=O)NCCc3c[nH]c4ccccc34)n2)cc1	?	-6	7%	-2.0%
89	Cc1cccc(-n2nnc(C(=O)NCc3ccccc3)c2N)c1	-13%	-5	-25%	-3.3%
90	COc1ccc(CCNC(=O)C(=O)NCC2OCCN2S(=O)(=O)c2cc(F)ccc2F)cc1 (stereo unspecified)	0%	nt	11%	-1.5%
91	O=C(O)c1ccc2ccc3ccccc3c2c1	-1%	nt	nt	-2.6%

# Not all compounds are listed; count on the stated rates, not on these rows.
